# TRPML1 agonist – human mucolipin-1 channel agonism; Q9GZU1; TRPML1-expressing cells, Ca2+ dye fluorescence, FDSS; host cell line not named in the record; reference of the full effect not given here; activation, % (no concentration beside the values); 0.12% of 410,000 active; in the data active = activation above about 50%; inconclusive = about 30% to 50%; inactive = below about 30%; note: 0% is about no effect; the text of the record puts the active cut at 80%
#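 TRPML1-DL cells, Tet-induced overnight (~16 h, 37 degrees C), loaded 45-90 min at room temperature with Ca8 no-wash calcium dye plus quencher. FDSS fluorescence: 10 s baseline, compound pin-transfer, 110 s agonist read, then EC80 54-4 (4uM final) and 110 s antagonist read.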
# PINK1 expr mod – modulators of PINK1 expression | 0.2% of 410,000 active | PINK1 immunofluorescence, high-content cytometry, 24 h | Potency, µM (top dose mostly 76.6 µM), without a hit: at the top dose activation (PINK1 increase), most hits filed as activators; active = well fitted activation curve with a large enough effect; inconclusive = small, poorly fitted or top-dose-only effect; inactive = flat fitted curve, though single readings scatter; cell line not stated here;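 note: potency is the fitted concentration of half-maximal effect; % of control where 0% means no effect; nearly all actives have a fitted effect of over 65% in size; a mitochondrial uncoupler was the plate control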
#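 Cells are seeded, rested 12 hours, then given compound at five concentrations or DMSO for 24 hours. After fixation, blocking and antibody staining, PINK1 amount and mitochondrial localization are scored; CCCP serves as control.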
# D2 potentiator – potentiates the human D2 dopamine receptor allosterically; AID 624464; P14416; DiscoveRx D2 beta-arrestin cells, luminescence, 90 min; 100% = 57 uM dopamine signal; potentiation, % (no concentration beside the values); 0.23% of 360,000 active; active = potentiation of 50% or more; inconclusive = 30% to 50%; inactive = 30% or less;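 note: compound concentration not given in the record; tested on top of an EC20 dose of dopamine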
#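 PathHunter beta-arrestin assay in DiscoveRx D2 cells. Compounds were added with an EC20 of dopamine (50 nM final) for 90 min at 37 deg C. Luminescence was read 1 h after detection reagent, with 57 uM dopamine as the EC100 control.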
# D2 ag – human D2 receptor agonism in beta-arrestin assay; P14416; DiscoveRx PathHunter D2 beta-arrestin, luminescence, 90 min; 100% = 57 uM dopamine signal; activation, % (test concentration not listed); 0.084% of 360,000 active; AID 624465; in the data active = activation above about 40%; inconclusive = about 15% to 40%; inactive = below about 15%; note: compound concentration not given in the record; the text of the record calls up to 30% inactive
#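 Agonist mode: compounds alone added to overnight-plated D2 PathHunter cells for 90 min at 37 C, with 57 uM final dopamine (EC100) defining full response. Beta-arrestin recruitment detected by chemiluminescent reagent, read after 1 h at ambient temperature.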
# Six1-Eya2 inh – Six1/Eya2 interaction inhibition. AlphaScreen GST-Six1/His-Eya2 binding, biochemical; active compounds read low; control for the full effect not named in the record. AID 651725. activity change, % (concentration not given with the values). 0.56% of 360,000 active. Q15475+O00167; in the data active = activity change below about -65%; inconclusive = about -30% to -65%; inactive = above about -30%; note: % is set by controls: 0 for no effect and ±100 for the full control effect
# Target sequence (O00167 whole entry, looked up): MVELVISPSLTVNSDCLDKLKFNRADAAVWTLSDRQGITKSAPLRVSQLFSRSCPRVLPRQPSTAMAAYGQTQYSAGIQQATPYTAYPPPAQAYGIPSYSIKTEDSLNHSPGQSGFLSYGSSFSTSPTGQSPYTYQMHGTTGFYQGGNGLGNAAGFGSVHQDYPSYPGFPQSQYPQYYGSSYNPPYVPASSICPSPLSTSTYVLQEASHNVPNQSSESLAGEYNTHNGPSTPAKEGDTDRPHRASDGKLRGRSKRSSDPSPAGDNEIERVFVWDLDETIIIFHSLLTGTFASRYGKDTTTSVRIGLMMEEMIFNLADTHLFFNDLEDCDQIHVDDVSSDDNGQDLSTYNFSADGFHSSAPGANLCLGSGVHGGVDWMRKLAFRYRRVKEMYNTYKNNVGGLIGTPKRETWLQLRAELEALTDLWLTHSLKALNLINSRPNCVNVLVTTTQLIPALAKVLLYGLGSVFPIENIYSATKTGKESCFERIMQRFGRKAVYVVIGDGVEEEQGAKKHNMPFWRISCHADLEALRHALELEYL
# Target sequence (Q15475 whole entry, looked up): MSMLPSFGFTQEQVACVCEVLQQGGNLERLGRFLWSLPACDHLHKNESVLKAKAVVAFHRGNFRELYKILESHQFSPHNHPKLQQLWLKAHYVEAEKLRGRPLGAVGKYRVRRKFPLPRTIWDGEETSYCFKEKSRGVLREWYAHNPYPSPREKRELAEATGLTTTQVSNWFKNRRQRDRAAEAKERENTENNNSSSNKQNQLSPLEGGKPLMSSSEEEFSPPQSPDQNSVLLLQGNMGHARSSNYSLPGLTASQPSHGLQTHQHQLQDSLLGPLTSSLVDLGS
#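 Homogeneous AlphaScreen proximity assay pairing GST-Six1 with His-tagged Eya2 (added as 5X mix: 250 nM and 500 nM) in 50 mM Tris pH 8.0, 300 mM NaCl, 1 mM TCEP. Glutathione donor and nickel acceptor beads; 1 h, 37 °C, dark.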
# CtBP-E1A inh – blocks the CtBP interaction with E1A; activity change, % (test concentration not listed); AID 651724; AlphaScreen GST-E1A/His-CtBP binding, 1536-well; active compounds read low; control for the full effect not named in the record; 0.49% of 340,000 active; in the data active means activity change below about -65%; inconclusive means about -30% to -65%; inactive means above about -30%; note: % is set by controls: 0 for no effect and ±100 for the full control effect
#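 AlphaScreen with 125 nM GST-E1A and 125 nM His-CtBP (5X stocks) in Tris pH 8.0, 300 mM NaCl, BSA, Tween 20, TCEP. Compounds preincubated 2 h at 37 deg C, then glutathione donor/nickel acceptor beads added for 1 h at 37 deg C in dark.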
# Starred values were filed as active, the others as inactive; ? = inconclusive; nt = no result given; & = joins results of further samples; [ ] = another dose, or the depositor's remark.
SMILES,TRPML1 agonist,PINK1 expr mod,D2 potentiator,D2 ag,Six1-Eya2 inh,CtBP-E1A inh
O=[N+]([O-])c1cc(C(F)(F)F)ccc1N1CCN(CCO)CC1,0.8,2.6%,-5,-0.2,-5,13
CCOc1ccc(CN(Cc2ccco2)S(=O)(=O)c2ccc(-n3cnnn3)c(OC)c2)cc1,0.7,3.7%[38.3 µM],-9,-1.8,-10,-6
CCOC(=O)C1CCN(C(=O)Nc2ccc(Cl)cc2Cl)CC1,2.2,1.2%,-3,-4.5,8,17
Cc1nc(-c2ccccc2)c(Cc2ccccc2O)c(=O)[nH]1,-0.4,0.9%,-16,-7.2,-2,nt
Cc1oc2c(CN3CCC(C)CC3)c(O)ccc2c(=O)c1-c1ccccc1,1.0,0.4%,-11,-3.8,11,nt
Cc1ccc(S(=O)(=O)Nc2ccccc2N=Cc2c(F)c(F)c(F)c(F)c2F)cc1,2.2,2.2%,-8,-0.9,4,-4
CC/C(Cc1ccccc1)=N/NC(=O)CCn1nnc2ccccc21,0.7,0.4%,-6,-1.6,5,-5
Cc1ccnc(NC2(C(F)(F)F)N=C3SCCN3C2=O)c1 (stereo not drawn),1.2,1.5%,2,-1.2,4,3
Cc1nc2c(o1)CCc1ccccc1C2O (stereo not drawn),-0.5,1.0%[38.3 µM],-2,0.6,-2,3
Cc1ccc(S(=O)(=O)Oc2cccc([N+](=O)[O-])c2)cc1,-0.8,12%,4,1.6,-18,-9
Cc1c([C@@H]2C[C@H]3CN(Cc4cccc(Cl)c4)C(=O)[C@]34CCCN24)cnn1C,0.5,0.4%,1,3.6,-1,7
CC(=O)Nc1ccc(N2CCN(Cc3ccccc3F)CC2)cc1,0.2,3.7%[38.3 µM],4,-1.6,-2,3
O=C(c1ccc(NC(=S)NCc2ccco2)cc1)N1CCCCC1,1.4,1.6%,-2,-21,4,12
CC(=O)Nc1cc(-c2ccccc2)cn2c(-c3ccc(F)cc3)cnc12,0.5,9.9%,-9,-2.0,-1,2
CC(C(=O)N1CCc2ccccc21)N1CCN(S(=O)(=O)c2ccc3c(c2)OCCCO3)CC1 (stereo not drawn),2.2,0.7%,-2,6.5,-6,-5
O=C(O)CSc1ccccn1,-0.5,4.7%,-1,-4.4,-6,-1
COc1ccc(N2CC(C)Cn3c2nc2c3c(=O)[nH]c(=O)n2C)cc1 (stereo not drawn),0.4,-0.1%,-1,-3.0,0,2
COCCN(Cc1ccccc1)C(=O)c1cccc(S(=O)(=O)N2CCN(Cc3ccccc3)CC2)c1,0.9,0.7%,-14,0.7,-11,6
NS(=O)(=O)c1ccc(CCNC(=O)COC(=O)CCc2c[nH]c3ccccc23)cc1,9.2,-3.0%,1,0.9,-1,-6
O=S(=O)(NCc1c(Cl)cccc1Oc1ccccc1)c1ccc(F)cc1,3.5,-0.3%,4,0.4,3,nt

# An excerpt of these results, tab-delimited.
SMILES	TRPML1 agonist	PINK1 expr mod	D2 potentiator	D2 ag	Six1-Eya2 inh	CtBP-E1A inh
Cc1ccnc(NC2(C(F)(F)F)N=C3SCCN3C2=O)c1 (stereo not drawn)	1.2	1.5%	2	-1.2	4	3
Cc1c([C@@H]2C[C@H]3CN(Cc4cccc(Cl)c4)C(=O)[C@]34CCCN24)cnn1C	0.5	0.4%	1	3.6	-1	7
Cc1nc(-c2ccccc2)c(Cc2ccccc2O)c(=O)[nH]1	-0.4	0.9%	-16	-7.2	-2	nt
Cc1nc2c(o1)CCc1ccccc1C2O (stereo not drawn)	-0.5	1.0%[38.3 µM]	-2	0.6	-2	3
NS(=O)(=O)c1ccc(CCNC(=O)COC(=O)CCc2c[nH]c3ccccc23)cc1	9.2	-3.0%	1	0.9	-1	-6

# Carrying on.
SMILES,TRPML1 agonist,PINK1 expr mod,D2 potentiator,D2 ag,Six1-Eya2 inh,CtBP-E1A inh
Cc1ccc(NNC(=O)Nc2ccc(Cl)cc2)nn1,0.1,0.8%,-2,2.8,7,-3
Cc1ccc(-c2cc(C(=O)N/N=C/c3ccco3)n[nH]2)s1,0.8,2.3%,2,3.7,-4,-13
O=C(CNC(=O)Cc1ccc(Cl)cc1)NCc1ccco1,1.2,1.3%,3,1.9,0,1
COc1ccc(C(=O)NCCc2c[nH]c3ccccc23)cc1,0.6,-0.7%,-2,-0.3,-3,-5
Cc1nc2nc(C)c(NS(=O)(=O)c3ccc4c(c3)CCCC4)c(=O)n2[nH]1,1.5,1.2%,-4,2.5,2,-7
Cc1cc(NS(=O)(=O)c2ccc(NC(=O)/C=C/c3ccccc3Cl)cc2)no1,0.7,1.4%,12,-5.5,?,-17
COc1ccccc1NC(=O)Nc1ccnn1C1CCN(C(=O)c2cscn2)CC1,4.8,-0.1%,-8,-3.1,-5,nt
CC(=O)O[C@]1(C(C)=O)CC[C@H]2[C@@H]3C[C@H](C)C4=CC(=O)CC[C@]4(C)[C@H]3CC[C@@]21C,-0.4&-0.8,32µM*,-6&5,4.0&5.4,0&-5,4&1
COc1ccc(CNC(=O)CC2C[C@H](C(=O)N3CCOCC3)[C@@]3(CCC4CCCC4)c4[nH]c5ccccc5c4CCN3C2=O)cc1OC (stereo partly drawn),1.7,-0.9%,nt,-2.2,-15,-16
CC1(C)CC(NC(=O)Cc2ccccc2[N+](=O)[O-])CC(C)(C)N1,0.8,2.1%,-15,0.7,6,1
CCn1c(CCn2ccnc2C)n[nH]c1=S,1.0,0.4%[38.3 µM],3,-0.1,4,1
COc1cccc(CN2CCN(Cc3cccc4c3OCO4)CC2CCO)c1 (stereo not drawn),0.7,0.2%,-18,-7.7,-3,1
O=C(NCc1ccc(Cl)nc1)c1csc(COCCO)n1,0.0,0.2%,-9,-2.5,-1,6
O=[N+]([O-])c1ccccc1N=NNc1ccccc1,2.6,1.2%,-6,-1.7,?,?
CC1(C)CCC(=O)N2CC[C@H]3c4cc5ccccc5nc4C[C@@H]1[C@H]32,-0.6,2.1%,-7,2.1,5,3
C[C@@H]1CN([C@H](C)CO)C(=O)c2cccc(NC(=O)c3ccncc3)c2O[C@@H]1CN(C)Cc1ccc(C(=O)O)cc1,0.1,1.5%,2,-2.6,-3,-24
Cc1cccc(Oc2nc3ccccn3c(=O)c2/C=C(\C#N)C(=O)NC2CCS(=O)(=O)C2)c1 (stereo not drawn),1.6,-2.2%,-2,0.2,1,0
N#Cc1c(N2CCOCC2)nc(-c2ccco2)c2c1CCCC2,-0.1,0.1%,21,-0.1,33,37
COC(=O)c1c(C)nsc1NC(=O)Oc1ccccc1,-0.2,-1.0%,1,0.7,11,-4
COc1ccc2cc3c(N)nn(C(=O)c4ccc(Cl)c([N+](=O)[O-])c4)c3nc2c1,-0.8,-2.1%,0,-1.6,-4,-1
CC(C)C(NC(=O)c1ccc(Cl)cc1)C(=O)NC1=NCCS1 (stereo not drawn),-1.6,0.2%,-6,-2.6,0,-3
COc1ccc(C(CC(=O)c2ccc(O)cc2)S(=O)(=O)c2ccc(C)cc2)cc1 (stereo not drawn),3.2,0.7%[38.3 µM],0,-2.5,-4,-5
CCc1ccc(/C=C/C(=O)C2C(=O)c3ccccc3C2=O)cc1,-0.1,-3.2%[38.3 µM],-10,-1.2,15,43
COc1ccc(-n2c(=S)[nH]c3cc(C(=O)N4CCN(c5ccccc5)CC4)ccc3c2=O)c(OC)c1,-0.5,8.0%,-4,-2.0,-2,5
CC(C)c1ccc(C(=O)N2CCN(c3cnn(C)c(=O)c3Cl)CC2)cc1,0.6,-0.1%,-4,-2.7,-4,-2
Cc1ccc2nc(NC(=O)c3ccc4ncsc4c3)sc2c1,-0.8,8.8%,-5,4.8,3,13
Cc1sc2ncn(CCC(=O)O)c(=O)c2c1C,-0.5,0.9%,-3,-3.5,8,9
CCN(CC)C(=O)Cn1cc(C(=O)C(=O)N2CCN(c3ccccc3)CC2)c2ccccc21,-0.4,2.0%,-11,-4.0,-3,-2
CCOc1ccc(C2C(C#N)=C(N)Oc3nc[nH]c(=O)c32)cc1 (stereo not drawn),-0.4,-1.4%,-2,-3.5,24,-21
CC(C)=CCN1CCN(Cc2cccc3nccnc23)CC1CCO (stereo not drawn),-0.6,4.8%,-20,-2.6,22,nt
O=C1[C@@H](c2ccccc2)CC[C@@H]2C=CC[C@H]3CCN1[C@@H]32,-0.6,-0.9%,nt,nt,-3,-1
CCc1ccccc1NC(=O)NC1CCCCC1,0.1,8.3%,-28,-1.8,0,11
COC(=O)c1c(NC(=O)/C=C/c2ccco2)sc2c1CCC2,0.1,?,-20,-2.7,14,10
Cn1nc(C(F)(F)F)c2cc(C(=O)Nc3ccc(F)cc3)sc21,2.4,0.8%,-9,-0.2,0,-12
CC(C)CNC(=O)NC(=O)COC(=O)c1cccc(NS(=O)(=O)c2ccc(F)c(F)c2)c1,2.8,5.4%,-2,1.9,-5,-22
CC1(C)CC2CC(C)(CN2Cc2cccc([N+](=O)[O-])c2)C1 (stereo not drawn),1.5,15%,-1,-2.7,-1,4
COC(=O)C1=C(C)N(C)C(=S)NC1c1ccc(Cl)cc1 (stereo not drawn),0.6,-0.9%,-5,-1.2,-3,-2
Cc1cc(-c2nnc(SCC(=O)N3C(C)CCCC3C)o2)no1 (stereo not drawn),-0.1,-5.0%[38.3 µM],0,-1.3,-1,9
CC1CCCCN1C(=O)CSCC(=O)Nc1nc(-c2cccs2)cs1 (stereo not drawn),0.7,0.8%,-6,-3.0,0,0
CCOc1ccc(/C=N/Nc2nc(=O)[nH]nc2C)cc1OC,0.6,0.2%,-3,-2.0,-25,nt
CC(OC(=O)CCOc1ccccc1)C(=O)Nc1ccc(Cl)cn1 (stereo not drawn),1.7,-0.6%,-12,-0.8,3,6
CC(C)(CO)NCc1ccc(Br)cc1,0.2,0.3%,-13,-2.8,-1,-11
O=C(CN1C(=O)CCC1=O)c1ccc(-c2ccccc2)cc1,0.7,2.1%,-16,-0.2,-7,-12
CCCCOP(=O)(OCCCC)C1(NS(=O)(=O)c2ccccc2)C=CC(=O)c2ccccc21 (stereo not drawn),1.5,9.1%,12,14,-29,-12
c1ccc(N2CCOCC2)c(Nc2nc3ccccc3n3cnnc23)c1,-0.2,2.0%,-3,3.4,-21,-20
COc1ccccc1CCC(=O)Nc1ccc2c(c1)c(=O)n(C)n2C,-0.7,1.9%,-14,3.7,8,0
O=C(CCNS(=O)(=O)c1ccc(Br)cc1)NCc1ccc2c(c1)OCO2,-0.1,-3.9%[38.3 µM],-3,0.3,2,6
O=C(COc1ccccc1[N+](=O)[O-])NNC(=O)Nc1cccc2ccccc12,0.8,2.5%,-9,-3.4,2,nt
O=C(Cc1ccc(F)cc1)OCN1C(=O)c2ccccc2C1=O,-0.6,0.5%,4,-1.0,3,9
CCOc1ccccc1NC(=O)COC(=O)C1CCC(=O)N1 (stereo not drawn),-0.8,1.6%,-6,-12,-3,0
CC(C)c1ccc(N2C(=NC(=O)C3CCCO3)SC3CS(=O)(=O)CC32)cc1 (stereo not drawn),-0.6,-0.2%,2,0.2,1,4
COc1ccc(S(=O)(=O)N(C)CC(=O)NCc2ccco2)cc1OC,0.0,1.1%,-4,-2.1,-9,-5
Cc1ccc(Nc2cc(C)nc3ncnn23)c(C)c1,-0.4,0.8%,6,6.4,3,4

# Assay outcomes (PubChem)
